Screens (PubChem)
miR-21 FLuc = raises the signal of a miR-21 reporter; Potency, µM (series often up to 38.3 µM), inactives show at the top dose reporter change, positive = more light; 340,000 tested, under 10 active; AID 2288; HeLa miR-21 FLuc reporter, luciferase, 48 h; active = well fitted rising curve with a large enough effect; inconclusive = small, poorly fitted or top-dose-only effect; inactive = no such curve, though single readings can be large or run the other way;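 note: % of control where 0% means no effect; miR-21 action dims this reporter so a rising signal means less miR-21 action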
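Compounds were titrated across several concentrations (up to approximately 40 uM) and incubated 48 hours with HeLa miR-21-FLuc reporter cells (miR-21 target sequence downstream of FLuc, endogenous miR-21). Readout was firefly luciferase luminescence after lytic detection reagent.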
* hit, by the source's call; ? = inconclusive; [ ] = remark or other dose.

miR-21 FLuc | SMILES
4.8% | Cc1cccc(NC(=O)CCS(=O)(=O)c2cc(Br)cc3c2N(C(=O)C2CC2)CC3)c1
-6.6% | CCOc1ccc(CNC(=O)CCn2nc(C)c3c(C)n(-c4ccccc4)nc3c2=O)cc1
-10.2% | O=C(Cc1ccc(F)cc1)NCCc1csc(-c2cccc(F)c2)n1
-8.3% | CCOc1ccc(C(=O)NCc2nnnn2-c2ccc(C)c(C)c2)cc1OCC
1.1% | COc1cc(OC)c(N(C)C(=O)Cn2ncc3c(=O)oc4ccccc4c32)cc1Cl
-1.5% | COc1cccc(NC(=O)Cn2c(=O)n(Cc3ccccc3)c(=O)c3c4c(sc32)CN(C(C)=O)CC4)c1
14.4% | COCCc1nn2c(=O)cc(COC(=O)c3ccc(C(C)(C)C)cc3)nc2s1
-12.6% | COc1ccc(CCNC(=O)c2c(O)nc3ccccn3c2=O)cc1
-21.8% | CCCc1cc(=O)[nH]c2nnc(SCCC(C)C)n12
-7.7% | CCc1ccc(NC(=O)Cn2c(=O)n(-c3ccc(OC)cc3)c(=O)c3ccc(C(=O)NCc4ccc(C)cc4)cc32)cc1
-7.4% | CCCN(CCC)C(=O)C1CCN(c2ncnc3c2nc2n3CCCCC2)CC1
0.9% | Cc1ccc(NC(=O)CCc2c(C)nc3nc(C)nn3c2C)c(Cl)c1
-1.2% | CSc1ccc(CCNC(=O)CCn2c(=O)c3cccn3c3ccc(F)cc32)cc1
-4.9% | Cc1ccc(C(=O)Nc2c(-c3ccccc3)nc3ccccn23)cc1C
29.8% | COCCCNC(=O)C1CCN(Cc2cc3ccccc3n2Cc2cccc(Cl)c2)CC1

Sorted by molecular weight (rising): part of the list above.
miR-21 FLuc | SMILES
-21.8% | CCCc1cc(=O)[nH]c2nnc(SCCC(C)C)n12
-4.9% | Cc1ccc(C(=O)Nc2c(-c3ccccc3)nc3ccccn23)cc1C
0.9% | Cc1ccc(NC(=O)CCc2c(C)nc3nc(C)nn3c2C)c(Cl)c1
14.4% | COCCc1nn2c(=O)cc(COC(=O)c3ccc(C(C)(C)C)cc3)nc2s1
-1.2% | CSc1ccc(CCNC(=O)CCn2c(=O)c3cccn3c3ccc(F)cc32)cc1
-6.6% | CCOc1ccc(CNC(=O)CCn2nc(C)c3c(C)n(-c4ccccc4)nc3c2=O)cc1

Remaining list, next part
miR-21 FLuc | SMILES
-0.8% | CC1CCN(c2nc(-c3ccc(Br)cc3)nc3ccccc23)CC1
-0.9% | Cc1ccccc1Cn1ccn(-c2ccc(F)c(F)c2)c(=O)c1=O
13.0% | COc1ccc(C2Nc3ccccc3-n3c(-c4ccccc4)c4c(=O)n(C)c(=O)n(C)c4c32)cc1 (stereo not drawn)
? | O=C(Nc1nc2ccc(F)cc2s1)c1nc(S(=O)(=O)Cc2ccccc2F)ncc1Cl
? | COc1ccccc1NC(=O)C1=C(C)Nc2nc(SCc3ccccc3)nn2C1c1cccc(O)c1 (stereo not drawn)
-4.8% | Cc1sc2c(c1C)c(=O)n(-c1cccc(C(F)(F)F)c1)c(=O)n2Cc1ccc(F)cc1
-5.0% | O=C(Nc1ccc(Cl)cc1Cl)c1cc(S(=O)(=O)NCc2ccc3c(c2)OCO3)ccc1F
22.3% | COc1ccc(OC)c(CNc2ncnc3onc(-c4ccc(Cl)cc4)c23)c1
? | CCC(C)n1c(SCc2c(F)cccc2Cl)nc2ccsc2c1=O (stereo not drawn)
-5.2% | O=C(Nc1ccccc1)N(Cc1cccs1)c1ccc(Cl)cc1
0.5% | COc1ccccc1CNc1ccc(-c2nc(C(C)C)no2)cc1[N+](=O)[O-]
-2.0% | CCOc1ccc(C(=O)Nc2ccc(OCc3cc(=O)n4cccc(C)c4n3)cc2)cc1
18.3% | O=C(NCc1ccc(Cl)cc1)C(=O)NCC(c1cccs1)S(=O)(=O)c1cccs1 (stereo not drawn)
-4.3% | CC(C)CCn1c(Oc2ccccc2F)nc2c1c(=O)n(C)c(=O)n2C
-11.5% | COc1ccccc1N1CCN(c2ncnc3c2cnn3-c2cccc(Cl)c2)CC1

2 records drawn at random from the list so far, as already listed:
miR-21 FLuc | SMILES
0.5% | COc1ccccc1CNc1ccc(-c2nc(C(C)C)no2)cc1[N+](=O)[O-]
-11.5% | COc1ccccc1N1CCN(c2ncnc3c2cnn3-c2cccc(Cl)c2)CC1

(next part)
miR-21 FLuc | SMILES
1.3% | Cc1ccc(OCC(=O)Nc2cccc(OCc3cc(=O)n4ccccc4n3)c2)cc1C
-2.5% | Cc1ccc(NC(=O)CN2C(=O)COc3ccc(S(=O)(=O)NC4CCCC4)cc32)cc1N(C)C
12.1% | COc1ccc(C(C)NC(=O)CN(c2cc(OC)ccc2OC)S(=O)(=O)c2ccccc2)cc1 (stereo not drawn)
4.3% | Cc1ccc2ncc3c(-c4ccc(F)cc4)nn(CC(=O)Nc4ccccc4C)c3c2c1
-2.1% | CCN(CC)c1ccc2cc(-c3nnc(-c4cccc(Cl)c4)o3)c(=O)oc2c1
-0.6%[7.66 µM] | CCCCn1c(C)cc2c(c1=O)[C@H]1O[C@](CCCC)(Cc3cc(OC)c(OC)cc31)O2
0.3% | Cc1ccc(CCNC(=O)c2ccc(CNS(=O)(=O)c3ccc(F)cc3)cc2)cc1
-22.7% | CCOc1ccc(CCNC(=O)c2cc3cc4ccc(OC)cc4nc3s2)cc1OCC
-0.4% | CCOc1ccc(OCC)c(NC(=O)c2ccc(-c3ccccc3)s2)c1
-1.4% | COC(=O)c1cc2sccc2n1Cc1nc(-c2ccc(C)cc2)oc1C
2.8% | Cc1ccc(CNC(=O)c2ccc(Cn3c(SCc4ccccc4F)nc4cccnc43)cc2)cc1
16.3% | Cc1cc(C)n(C(C)CC(=O)NCc2ccc(Cl)cc2)n1 (stereo not drawn)
5.7% | CC1CCN(C(=O)Cn2cc(SCC(=O)NCc3ccc(F)cc3)c3ccccc32)CC1
26.3% | COc1cc2nc(NC(=O)c3ccc(S(=O)(=O)N4CCc5ccccc54)cc3)sc2cc1OC
-5.2% | CCOC(=O)c1c(-c2ccc(OC)c(OC)c2)csc1NC(=O)c1ccccc1F
-4.4% | Cc1ccc(Cl)cc1Nc1nn2c(=O)c3ccc(C(=O)NC4CCC(C)CC4)cc3nc2s1 (stereo not drawn)
1.9% | CCOc1ccc(CNC(=O)c2ccc3nc(CC)c(CC)nc3c2)cc1OC
-45.2% | CCCCOC(=O)c1ccc(-n2nnc3c(sc4nc(C)cc(C)c43)c2=O)cc1
? | CCc1ccc(Nc2cc(C)nc3nc(Cc4ccc(Cl)cc4)nn23)cc1
-1.0% | CCC(=O)N1CCc2cc(Br)cc(S(=O)(=O)N3CCN(c4ccc(C)cc4)C(C)C3)c21 (stereo not drawn)
-6.2% | COc1ccc(C2CC(=O)N3CN(C4CCCCC4)CSC3=C2C#N)cc1 (stereo not drawn)
2.2% | CCOCCc1nn2c(=O)cc(COC(=O)c3ccccc3Br)nc2s1
-2.4% | Cc1ccc(Cl)cc1N1CCN(CCCNc2ncnc3onc(-c4ccc(Cl)cc4)c23)CC1
6.4% | CCn1c(=O)n(CC)c2cc(N3CCCCC3)c(NC(=O)Nc3ccccc3C(F)(F)F)cc21
-0.1% | CC(C)(C)c1ccc(C(=O)Nc2ccc(-c3nc4cc(Cl)ccc4o3)cc2)cc1
4.1% | CCOc1ccc(CC(=O)NCCc2sc3nc(-c4ccc(F)cc4)nn3c2C)cc1
-5.9% | COc1cccc(CNC(=O)Cn2c(=O)c3cccn3c3ccc(F)cc32)c1OC
2.4% | CCc1ccc(NC(=O)CSc2nc3c(sc4ccccc43)c(=O)n2CCCOC)cc1
-0.3% | COc1ccc(CNC(=O)c2cc(C3CC3)nc3c2c(C)nn3-c2cccc(Cl)c2C)cc1
-4.9% | Cc1cc(-n2c(C)nc3ccccc3c2=O)ccc1NC(=O)c1ccc([N+](=O)[O-])cc1
-13.1% | c1ccc(CNc2nc3c(-c4ccccc4)nnn3c3ccccc23)cc1
-39.0% | O=C(CSc1nccn1-c1ccc(F)cc1)Nc1nc2ccccc2s1
12.2% | CC(C)Oc1ccc(CNC(=O)Cc2ccc(NC(=O)N3CCSc4ncccc43)cc2)cc1
19.3% | CCCCNC(=O)CCc1c(C)nc2cc(-c3ccccc3)nn2c1C
-47.1% | COc1ccc(-c2nc3ccccc3o2)cc1NC(=O)COc1ccc(C(C)(C)C)cc1
3.3% | CCOC(=O)c1ccc(N2C(=O)c3n[nH]c(-c4cccs4)c3C2c2ccc(C)cc2)cc1 (stereo not drawn)
-5.7% | COc1ccc(-c2c3c(=O)n(C)c(=O)n(C)c3c3n2-c2ccccc2NC3c2ccccc2OC)cc1 (stereo not drawn)
-18.5% | CCOc1ccc(CNC(=O)CCCn2c(=O)c3cccn3c3ccc(F)cc32)cc1
-3.5% | CCCOc1ccc(C2c3c(oc4ccccc4c3=O)C(=O)N2c2ccc(C)cn2)cc1OCC (stereo not drawn)
-8.8% | COC(=O)c1c(N)n(-c2ccc(OC)c(Cl)c2)c2nc3ccccc3nc12
-16.6% | CCOC(=O)c1c(C)oc2nc(C)nc(NCCc3ccc(OC)c(OC)c3)c12
-0.1% | CCOCCCNC(=O)C(=O)Nc1c2c(nn1-c1ccccc1)CSC2
16.9% | CCOc1ccc(CNC(=O)c2cccn2-c2nnc(N3CCCCC3)s2)cc1OC
17.6% | Cc1cccc(N(C)C(CNS(=O)(=O)c2ccccc2)c2ccccc2)c1 (stereo not drawn)
-14.3% | CC1=C(c2ccc(Cl)cc2)S(=O)(=O)N=C1N1CCN(c2cc(C)ccc2C)CC1
-0.3% | CCOC(=O)N1CCc2c(sc3c2c(=O)n(-c2ccc(CC)cc2)c(=O)n3Cc2ccc(F)cc2Cl)C1
? | COc1ccc(NC(=O)/C=C\C(=O)N(c2ccc(C(C)C)cc2)C(C(=O)NCc2ccco2)c2ccc(C)cc2)cc1 (stereo not drawn)
7.4% | COc1cc(NC(=O)CC(C)S(=O)(=O)c2ccc3c(c2)CCN3C(C)=O)cc(OC)c1OC (stereo not drawn)
-2.7% | CCCCN1CC(c2nc3ccccc3n2CCCCOc2ccccc2C)CC1=O (stereo not drawn)
-4.4% | CCOc1ccc(C(=O)NCC(c2ccc3c(c2)OCO3)N2CCN(C)CC2)cc1 (stereo not drawn)
-2.4% | O=C(C1CC1)N1CCN(c2nc3c(Cl)cccc3s2)CC1
-7.6% | COc1ccccc1NC(=O)CSc1nc2c(oc3ccccc32)c(=O)n1-c1ccc(C)cc1
-28.3% | COc1cccc(-c2nnc(SCC(=O)N(C)c3ccccc3)o2)c1
15.7% | Cc1ccc(N2C(=O)CSC23C(=O)N(Cc2ccccc2F)c2ccccc23)cc1F (stereo not drawn)
-23.2% | COC(=O)c1ccccc1NC(=O)c1nc(-c2ccc(C)cc2)n2c1CCCCC2
24.6% | CCOC(=O)c1c(-c2ccccc2)oc2ccc(NS(=O)(=O)c3ccc(OC)cc3)cc12
4.4% | O=C(COc1ccccc1)NCC(c1ccc(Cl)cc1)N1CCOCC1 (stereo not drawn)
-5.8% | CC(=O)Nc1ccc(S(=O)(=O)NC2=NCN(CCO)CN2)cc1
16.9% | CC(=O)N1c2ccccc2C(=O)C1N1CCN(c2cccc(C(F)(F)F)c2)CC1 (stereo not drawn)
-0.5% | COc1cc2[nH]c(=O)n(CCCCCC(=O)NCCc3ccccc3)c(=O)c2cc1OC

As entered above.
For miR-21 FLuc, COc1ccc(C(C)NC(=O)CN(c2cc(OC)ccc2OC)S(=O)(=O)c2ccccc2)cc1 (stereo not drawn) is listed with 12.1%
For miR-21 FLuc, COc1ccc(-c2c3c(=O)n(C)c(=O)n(C)c3c3n2-c2ccccc2NC3c2ccccc2OC)cc1 (stereo not drawn) is listed with -5.7%

Continued.
miR-21 FLuc | SMILES
2.0% | COc1ccc(NC(=O)c2nc(SCc3ccccc3F)ncc2Cl)cc1
-30.5% | COc1ccc(C)cc1-n1nnc(-c2nc(-c3ccccc3Cl)no2)c1N
0.5% | COc1ccc(C(=O)OC2=C(C(=O)c3ccccc3)N(C)S(=O)(=O)c3ccccc32)cc1OC
3.9% | CC(=O)c1cc2c(cc1N/C(=N/S(=O)(=O)c1ccc(Cl)cc1)c1ccc(F)cc1)OCO2
10.0% | O=C(CSc1nccn1-c1cccc(Cl)c1)Nc1cccc(C(F)(F)F)c1
26.2% | CCc1ccc(NC(=O)c2cc(=O)c3ccc(C)c(C)c3o2)cc1
-6.5% | Cc1ccccc1C(=O)Nc1cc(C)c(O)c(-c2nc3ccccc3o2)c1
-4.8% | Clc1ccccc1CNc1ncnc2c1c(-c1ccccc1)cn2-c1ccccc1
13.5% | CCC(C(=O)Nc1ccccc1C(=O)OC)n1nc(C)c2c(C)n(-c3ccc(C)cc3)nc2c1=O (stereo not drawn)
-4.0% | COc1ccc(CNC(=O)c2cnc3sc(N4CCC(C)CC4)nn3c2=O)c(OC)c1
-36.6% | Cc1cc2nc(-c3ccc(NC(=O)c4ccccc4F)cc3)oc2cc1C
-26.1% | Nc1cc(=O)nc(SCC(=O)Nc2ccc(F)cc2)n1-c1ccccc1Cl
2.5% | CC(C)n1c(SCC(=O)Nc2ccc(F)cc2)nc2c(oc3ccccc32)c1=O
-7.3% | CCOC(=O)c1sc(NC(=O)c2nc3nc(C)cc(C(F)F)n3n2)c(C(=O)OC(C)C)c1C
-2.3% | Cc1ccc(CNC(=O)CCCCCn2c(=O)c3sccc3n(CC(=O)N(C)c3ccccc3)c2=O)cc1
-2.0% | CC(=O)Nc1ccccc1-c1nc2ccccc2n(C(C)C(=O)c2ccc(C)c(C)c2)c1=O (stereo not drawn)

The list is partial (hit frequency here may not be typical).
